mHTT CaM bind: mutant huntingtin-calmodulin interaction inhibitors – biochemical, AlphaScreen, primary screen. actives 3.6% (n = 190,000). AlphaScreen His-mHTT/GST-CaM binding, luminescence. P42858. AID 1671202, 2021. inhibition, % at 15 µM; in the data active = inhibition above about 50%;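 also: 0% = both proteins with DMSO and 100% = one protein alone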
Active calls of the source: *.

Start of the data: the first three records, ahead of the listing:
SMILES	mHTT CaM bind
COCc1cc(C)nc(SCC(=O)c2ccc(O)c(O)c2)c1C#N	12.0
Clc1ccc(CSc2ncn[nH]2)c(Cl)c1	4.0
O=C(O)CN(Cc1ccccc1)S(=O)(=O)c1ccc(Cl)cc1	-4.6

The whole of this part (from the top)
SMILES	mHTT CaM bind
COCc1cc(C)nc(SCC(=O)c2ccc(O)c(O)c2)c1C#N	12.0
Clc1ccc(CSc2ncn[nH]2)c(Cl)c1	4.0
O=C(O)CN(Cc1ccccc1)S(=O)(=O)c1ccc(Cl)cc1	-4.6
O=C(Nc1ccccc1)c1c(NC(=O)C(F)(F)F)sc2c1CCCCC2	11.0
O=[N+]([O-])c1ccc(/C=C/c2ccc3ccccc3n2)o1	46.1
Nc1nonc1-c1nc2ccccc2n1CC(=O)Nc1ccc(F)c(F)c1	9.0
NS(=O)(=O)c1ccc(NC(=O)CN2CCN(C(=O)c3ccccc3)CC2)cc1	3.6
O=c1oc(-c2ccccc2Cl)nc2ccccc12	-1.0
O=C(Nc1sc2c(c1C(=O)Nc1ccccn1)CCCCC2)c1ccccc1F	-2.0

Some values from above:
Entry of Clc1ccc(CSc2ncn[nH]2)c(Cl)c1 in mHTT CaM bind: 4.0
Entry of COCc1cc(C)nc(SCC(=O)c2ccc(O)c(O)c2)c1C#N in mHTT CaM bind: 12.0

Assay outcomes from PubChem.

The list is partial; most or all hits stand in other tables.
